Source: PubChem BioAssay (National Center for Advancing Translational Sciences (NCATS))
NS1 function inh – influenza NS1 inhibition; S. cerevisiae slowed by influenza A NS1, growth recovery by OD600; Potency, µM (titrated, usually from 46.1 µM), inactives show at the highest dose activity, positive = more growth; hit rate 0.4% among 270,000; AID 2326; active means well fitted rising curve with a large enough effect; inconclusive means small, poorly fitted or top-dose-only effect; inactive means no such curve, though single readings can be large or run the other way; note: nearly all actives have a fitted effect of over 50% in size
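In this qHTS, NS1 from influenza A is expressed in budding yeast, where it slows growth. Cells are switched from glucose to 2% galactose medium (pH 6.0, -URA), treated with compound, and growth recovery is read at OD600.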
Cruzain inh Det – blocks cruzain activity in presence of Triton detergent; P25779; purified cruzain, Z-FR-AMC fluorescence, 0.01% Triton; Potency, µM, inactives show max response, negative = inhibition, actives largely listed as inhibitors; hit rate 0.43% among 200,000;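 note: plate controls were neutral wells for no effect and buffer without enzyme for full effect; nearly all actives have a fitted effect of over 40% in size; top concentration of the series not given in the record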
Target sequence (P25779 123-467 limits assumed): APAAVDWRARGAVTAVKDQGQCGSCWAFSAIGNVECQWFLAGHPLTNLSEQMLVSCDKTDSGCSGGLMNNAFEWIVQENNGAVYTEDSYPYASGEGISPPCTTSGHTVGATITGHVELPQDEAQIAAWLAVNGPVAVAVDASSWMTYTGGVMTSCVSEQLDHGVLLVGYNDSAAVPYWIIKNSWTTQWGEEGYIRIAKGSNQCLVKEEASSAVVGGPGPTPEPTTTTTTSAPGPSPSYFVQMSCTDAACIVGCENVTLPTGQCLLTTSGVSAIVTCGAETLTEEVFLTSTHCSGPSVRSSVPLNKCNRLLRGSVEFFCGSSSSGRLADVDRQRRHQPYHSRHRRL
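Read-out: AMC fluorescence (360 nm excitation, 450 nm emission), four reads over 2 min, first-to-third difference used. Conditions: cruzain 1.5 nM, Z-FR-AMC 2 uM, pH 5.5 acetate, 5 mM DTT, 0.01% Triton X-100.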
Lassa entry inh – blocks Lassa virus binding to or entry into cells; AID 540256; Potency, µM (doses to about 37.9 µM), inactives show at the top dose activity change, negative = inhibition, most hits filed as inhibitors; hit rate 1.2% among 300,000; Lassa virus pseudotype entry inhibition, cell reporter; control for the full effect not named in the record; active means well fitted inhibition curve with a large enough effect; inconclusive means small, poorly fitted or top-dose-only effect, or effect the other way; inactive means flat fitted curve, though single readings scatter; tested in HEK293 cells; note: % is set by controls: 0 for no effect and ±100 for the full control effect; nearly all actives have a fitted effect of over 50% in size; luciferase read-out
SARS PLP yeast – SARS-CoV PLP inhibition in yeast; AID 485353; hit rate 0.19% among 330,000; Potency, µM (series often up to 32.9 µM), for inactives: at the top dose activity, positive = growth rescue; S. cerevisiae expressing SARS-CoV PLpro, growth rescue; control for the full effect not named in the record; active means well fitted rising curve with a large enough effect; inconclusive means small, poorly fitted or top-dose-only effect; inactive means no such curve, though single readings can be large or run the other way; note: 0% is about no effect; nearly all actives have a fitted effect of over 55% in size; growth read by luminescence after 48 h
Cruzain inh noDet – cruzain (T. cruzi) inhibition without detergent; P25779; purified cruzain, Z-FR-AMC fluorescence, no detergent; Potency, µM, for the others: max response, negative = inhibition, most hits filed as inhibitors; hit rate 2.3% among 200,000;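 note: plate controls were enzyme without inhibitor for no effect and buffer without enzyme for full effect; nearly all actives have a fitted effect of over 40% in size; top concentration of the series not given in the record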
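Detergent-free condition (0.00005% Triton X-100) in acetate buffer pH 5.5 with DTT. 1.5 nM enzyme and compound were pre-mixed 15 min, then 2 uM Z-FR-AMC substrate added; reaction progress from fluorescence change between first and third reads (60 s).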
MARV entry inh – Marburg virus entry inhibition; Marburg virus pseudotyped entry inhibition, cell reporter; control for the full effect not named in the record; about a third of the inactives were read at about 46 µM; Potency, µM (doses to about 37.8 µM), for the others: at the highest dose activity change, negative = inhibition, actives largely listed as inhibitors; AID 540276; hit rate 1.8% among 300,000; active = well fitted inhibition curve with a large enough effect; inconclusive = small, poorly fitted or top-dose-only effect, or effect the other way; inactive = flat fitted curve, though single readings scatter; tested in HEK293 cells; about a fifth of its hits are not listed in these tables; note: % is set by controls: 0 for no effect and ±100 for the full control effect; luciferase read-out
StopGo reporter – lowers the luciferase signal of an FMDV 2A StopGo reporter. human cells with a luciferase reporter of 2A StopGo recoding; control for the full effect not named in the record. Potency, µM (titrated, usually from 57.9 µM), for the others: at the highest dose signal change, negative = less light. hit rate 1.2% among 410,000; active = well fitted falling curve with a large enough effect; inconclusive = small, poorly fitted or top-dose-only effect; inactive = no such curve, though single readings can be large or run the other way; tested in HEK293T cells; note: % is set by controls: 0 for no effect and ±100 for the full control effect; nearly all actives have a fitted effect of over 45% in size; luciferase light after 4 h
RE007 growth inh – less growth of the S. pombe RE007 Vpr strain; S. pombe RE007 Vpr strain, BacTiter-Glo ATP luminescence, 24 h; control for the full effect not named in the record; Potency, µM (titrated, usually from 92.2 µM), for the others: top-dose activity change, negative = less growth; hit rate 0.21% among 360,000; AID 651644; active = well fitted falling curve with a large enough effect; inconclusive = small, poorly fitted or top-dose-only effect; inactive = no such curve, though single readings can be large or run the other way;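 note: % is set by controls: 0 for no effect and ±100 for the full control effect; nearly all actives have a fitted effect of over 50% in size; the assay follows cell death caused by Vpr and the record does not say whether a fall means rescue or toxicity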
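Fission yeast strain RE007, carrying one chromosomally integrated HIV-1 vpr copy, was seeded at OD 0.01 in PMG+AL medium with 23 nL pinned compound. After 24 h at 30 °C and 99% humidity, viability was read by BacTiter-Glo luminescence.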
Active calls of the source: *; u = inconclusive; x = no result given; & = joins results of further samples; [ ] = dose if it differs, or a comment. Unless noted, calls come from the whole dose curve; as a rule, active = well fitted curve in the direction sought with a large enough effect; inconclusive = small, poorly fitted or top-dose-only effect, or another doubt; inactive = no such curve, though single readings can be large; an effect the other way counts as inactive or inconclusive. Potency is the fitted concentration of half-maximal effect.

SMILES	NS1 function inh	Cruzain inh Det	Lassa entry inh	SARS PLP yeast	Cruzain inh noDet	MARV entry inh	StopGo reporter	RE007 growth inh
O=C(Oc1coc(CSc2nnc(NC(=O)C3CC3)s2)cc1=O)c1ccccc1	14%	-12%	5%	-4%	1%	u	-13%	-1%
CCc1cc2c(cc3c(=O)n(CC(=O)NCCCN4CC(C)CC(C)C4)ncn32)s1 (stereo not given)	3%	-1.0%	x	4%	2%	2%	-7%	15%
Cc1cccc(OCC(=O)N(Cc2ccco2)C2CCS(=O)(=O)C2)c1 (stereo not given)	9%	x	x	-3%	x	x	-2%	-10%
O=c1c2ccccc2c(C=Nc2cccc(S(=O)(=O)NCc3ccco3)c2)c(O)n1-c1ccc(Cl)cn1	28%	-1.9%	-17%	3%	u	-17%	21%	1%
Cc1cc(NC(=O)CCCn2nc(C)c([N+](=O)[O-])c2C)no1	x	x	-4%[46.1 µM]	3%	x	2%[46.1 µM]	-12%	-5%
CC1(C2CC2)NC(=O)NC1=O (stereo not given)	7%	-0.8%	u	1%	-5%	13%	-10%	16%
CC(NC(=O)c1ccc(CSc2nc3ccncc3n2Cc2ccc(F)cc2)cc1)c1ccccc1 (stereo not given)	x	-3.3%	-20%[46.1 µM]	x	3%	u	-24%	x
CCCCCC(=O)NC(NC(=S)NC1CCS(=O)(=O)C1)C(Cl)(Cl)Cl (stereo not given)	7%	1.3%	1%	14%	7%	-17%	-3%	-6%
COc1cccc(CNC(=O)C2Cc3ccccc3CN2C(C)=O)c1 (stereo not given)	9%	x	12%	3%	x	-12%[46.1 µM]	12%	-19%
O=C(Cn1cc(SCc2ccccc2F)c2ccccc21)N1CCCC1	x	-5.8%	u	x	21%	x	34%[activator]	x
Cc1cc(C)cc(-n2c(C)nc3cc(C(=O)O)ccc32)c1	x	-0.7%	-1%	-2%	-3%	8%&-6%[46.1 µM]	-10%&-8%	-1%
CCC(C)c1ccc(C(C)NC(=S)NC2CCCCC2)cc1 (stereo not given)	-91%	x	u	-14%	x	u	u	2%
COCCN(Cc1cccs1)S(=O)(=O)c1cc(-c2cc(C)no2)ccc1C	x	-1.4%	u	x	u	x	-25%	x
Fc1ccc(-c2ccnc3nc(N4CCN(c5ccccc5)CC4)nn23)cc1	17%	-5.8%	0%	-15%	u	0%	7%	9%[3.69 µM]
Cc1nc2ccccc2n1CCc1nc2c3ccccc3nc(SCC(=O)Nc3ccc(C(C)C)cc3)n2n1	x	-1.2%	-1%[46.1 µM]	x	-5%	x	-12%	x
O=C1c2cccc3c([N+](=O)[O-])c(O)cc(c23)C(=O)N1Nc1ccccc1	1%	x	-27%	-1%	x	-11%[46.1 µM]	-20%	-11%
CC1Sc2ccc(S(=O)(=O)N3CCC(C(=O)NCc4ccccc4)CC3)cc2NC1=O (stereo not given)	4%	x	4%[46.1 µM]	-1%	x	-13%[46.1 µM]	u	0%
CCSc1ncc(Cl)c(C(=O)Nc2sc3c(c2C(=O)NCc2cccnc2)CCCC3)n1	7%	3.8%	-23%	-7%	-5%	-2%	x	11%
CCSC1=N/C(=C/c2ccsc2)C(=O)N1c1ccccc1	-1%	-9.8%	-7%	-22%	-13%	2%	0%	4%
COc1ccc(C(=O)OCCN2C(=O)c3ccccc3C2=O)cc1	-31%	-0.2%	-27%	1%	10%	u	1%	-12%
COc1ccc(CC(=O)Nc2nnc(CC(C)C)s2)cc1S(=O)(=O)N1CCOCC1	x	x	-19%	1%	x	17%	-10%	-2%
O=C(Nc1ccc(F)cc1)C1CCN(c2nnnn2-c2ccccc2)CC1	-41%	2.0%	-10%	-13%	6%	7%	u	12%
COc1cccc(-c2ccc(=O)n(CC(=O)Nc3cc4c(cc3NC(C)=O)OCCO4)n2)c1	1%	-1.4%	7%	3%	28%	9%	-16%	6%
N#CC1=C(N)OC2=C(CC/C2=C\c2ccccc2Cl)C1c1ccccc1Cl (stereo not given)	7%	-3.2%	x	3%	u	0%	-28%	-25%
CCC(=O)N1c2ccccc2-c2nnc(SC)nc2OC1c1ccc(N(C)C)cc1 (stereo not given)	-55%	-5.1%	-2%	14%	3%	-35%	-28%	10%
C=CCN(C(=O)Nc1ccc(F)cc1)C1CC(=O)N(c2ccc(OC)cc2)C1=O (stereo not given)	u	0.4%	-5%	u	-1%	-6%	-25%	-7%
Cc1ccc(CNCC(O)(c2ccccc2)c2ccc(Cl)cc2)cc1 (stereo not given)	x	x	-15%[46.1 µM]	2%	x	10µM*	-19%	-18%
CC(C)C(=O)N1CCN(c2ccc(NC(=O)c3cccs3)cc2Cl)CC1	-8%	x	x	0%	x	x	u	1%
C=CCNC(=O)c1ccc([N+](=O)[O-])c(Cl)c1	-1%	x	u	-1%	x	1%[46.1 µM]	-20%	-7%
COC(=O)c1cn(NC(=O)c2cccc(OC)c2)c(=O)c2ccccc12	10%	-4.1%	3%	-3%	2%	-14%	-18%	5%
COc1ccc(CN2C(=O)C(NC(=O)c3ccc(C)cc3)(C(F)(F)F)N=C2c2ccccc2)cc1 (stereo not given)	x	-6.3%	-17%[46.1 µM]	x	8%	-11%[46.1 µM]	-23%	x
CCN1CCN(C(=O)COc2ccc3c(c2)C(=O)CC2(CCN(C(C)=O)CC2)O3)CC1	3%	-2.8%	1%	10%	-18%	28%	-21%	-11%
Cc1ccc(S(=O)(=O)N2CCN(C(=O)Cn3nc(C)c([N+](=O)[O-])c3C)CC2)c(C)c1	4%	x	-7%	3%	x	-10%	-17%	25%
O=C(COC(=O)COc1ccc(Cl)cc1)Nc1ncc(Br)s1	x	x	15%	6%	x	10%[46.1 µM]	3%	17%
COc1ccc(OC)c(-c2csc(NC(=O)C3c4ccccc4Oc4ccccc43)n2)c1	18%	0.7%	u	-9%	20µM*	-7%	-24%	-4%
c1cnc2ncc3sccc3c2c1	2%	-4.6%	-3%	9%	-7%	-15%	-13%	5%
CC1CCCC(C)N1/N=C/c1ccccc1F (stereo not given)	5%	x	22%	2%	x	12%[46.1 µM]	11%	0%
COc1cc(-c2[nH]ncc2CN(C)Cc2cc(C)[nH]n2)cc(OC)c1OC	2%	x	x	0%	x	x	27%	-12%
CC(C)CN1CCN(CC#Cc2ccccc2)CC1CCO (stereo not given)	-1%	x	x	1%	x	x	-1%	5%
COc1ccc(-c2onc(C)c2C)cc1S(=O)(=O)NCc1ccc(C)o1	x	0.7%	u	x	-9%	x	39%[activator]	x
CCc1ccc(N2CC(C(=O)Nc3cc(C)ccc3F)CC2=O)cc1 (stereo not given)	u	2.7%	-12%	7%	-6%	5%	x	-10%
COc1ccc(Nc2cc(C)nc(NCc3ccccc3)n2)cc1	-34%	x	u	0%	x	u	u	37%
Cc1c(NC(=O)C(C)Sc2nc3ccccc3c(=O)n2CCO)c(=O)n(-c2ccccc2)n1C (stereo not given)	-1%	2.1%	-7%	-2%	-4%	29%&29%	-8%	3%
CCc1ccc(S(=O)(=O)c2nnn3c2nc(NCCC(C)C)c2cc(Cl)ccc23)cc1	x	-0.4%	x	x	0%	-2%[46.1 µM]	-3%	x
O=C(O)c1ccc2c(c1)OCCO2	u	0.3%	u	25%	-9%	18%	0%	10%
COc1cccc(NC(=O)Nc2cc(NC(=O)Nc3cccc(OC)c3)c(C)nc2C)c1	19%	-2.8%	23%	-7%	u	14%	-17%	14%
COc1cccc(C(=O)NCCS(=O)(=O)NCc2cccs2)c1	x	x	26%	-3%	x	16%	9%	-13%
CC(OC(=O)c1ccc2c(c1)OCCO2)C(=O)c1ccccc1 (stereo not given)	x	x	u	-4%	x	u	-6%	-20%
Cc1nc(CN(C)C(=O)CC2C(=O)NCCN2Cc2ccc(F)cc2)cs1 (stereo not given)	2%	x	-1%	-1%	x	1%	-11%	-21%
Cc1ccc(NC(=O)CCC(=O)N2Cc3ccccc3Oc3ncccc32)cc1	x	-1.8%	8%[46.1 µM]	x	-8%	x	-15%	x
CC(=O)c1ccc(N2C(=NC(=O)C(C)C)SC3CS(=O)(=O)CC32)cc1 (stereo not given)	2%	-0.6%	-13%	3%	1%	-19%	-17%	-6%
CC/C(C)=C1\SC(N2CCN(c3cccc(C(F)(F)F)c3)CC2)=NC1=O	1%	-4.0%	-7%	1%	-4%	3%	-3%	5%[3.69 µM]
CN(Cc1ccccc1)Cc1c[nH]c2ccccc12	1%	-0.9%	-1%	0%	7%	-17%&-17%[46.1 µM]	-26%	-8%
CCc1ccc(OCc2cccc(C(=O)N/N=C\c3cnn(C)c3C)c2)cc1	11%	x	u	8%	x	u	-14%	0%
O=C(CCc1ccccc1)Nc1ccccc1F	-5%	-2.3%	u	1%	2%	u	-17%	-11%
COc1ccccc1NC(=O)c1ccc(C)s1	-39%	-2.0%	u	-16%	-12%	16%	38%[activator]	-21%
Cc1cc(C)cc(OCCN2CCOCC2)c1	4%	x	x	5%	x	x	-13%	-11%
Cc1ccccc1Nc1nnc(SCC(=O)c2cc3ccccc3o2)s1	26%	-8.9%	u	-17%	u	2%	-7%	-15%
Cc1cc(C(=O)Nc2sccc2C(N)=O)c(C)o1	x	x	2%[46.1 µM]	0%	x	u	25%	-2%
COc1cc(Br)c(CC2c3cc(OC)c(OC)cc3CCN2C)cc1OC (stereo not given)	x	x	5%[46.1 µM]	x	x	14%	-8%	15%
Cc1occc1C(=O)NCc1nc(-c2ccc(Cl)cc2)no1	-2%	x	x	-1%	x	-23%[46.1 µM]	-18%	4%
Cc1onc(C(=O)/C=C/N(C)C)c1C(=O)Nc1nccs1	17%	0.0%	1%	5%	-10%	3%	-21%	1%
Cc1ccc(C)c(NC(=O)c2ccccc2NC(=O)C2CCCO2)c1 (stereo not given)	4%	x	x	-1%	x	x	2%	13%

This is a random part of the collection, and some 4.7% of all compounds hit somewhere here.
